PrP UTR inh: inhibition of PrP 5' UTR reporter expression; 340,000 compounds, 0.35% hits; cell-based PrP 5' UTR mRNA reporter, plate reader; inhibition, % (concentration not given with the values); AID 488862, 2010;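 active = every replicate at 50% or more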;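 note: 0 = median of the neutral control wells; tested in H4 reporter cells; numbers are from one replicate; inactives centre near -14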
Autofluor counter: counter-screen for toxin protease inhibitors: compound fluorescence; fluorescence intensity (concentration not given with the values); 360,000 compounds, 3.1% hits; compound autofluorescence counterscreen, microsphere flow cytometry; hits give high values;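 active = at least 3 SD above the mean of all compounds, about 16000 in these data; inconclusive = too few beads counted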;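 note: 100 nL of 1 mM stock went into each well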
* marks the source's active call; other numbers are inactive results; ? = inconclusive. The list is partial, so the mix of outcomes need not match the whole.

Below each SMILES: PrP UTR inh, Autofluor counter
- O=S1(=O)c2c(F)cccc2OC(COc2ccccc2)CN1CCc1ccc(F)cc1 (centres undefined)
  -21.2, 3676
- COc1ccc([C@@H]2CC=C(C(=O)O)CN2S(=O)(=O)c2ccc(C)cc2)cc1OC
  -15.3, 3888
- COc1ccccc1OCC(=O)NNC(=O)c1ccc(F)c(S(=O)(=O)N2CCOCC2)c1
  -20.3, 3692
- CCOC(=O)[C@H]1[C@H]2COc3cc(OC)ccc3[C@@H]2N2C(=O)c3cc(OC)ccc3NC(=O)[C@@]12C
  12.9, 3651
- Cc1ccc(S(=O)(=O)Nc2ccccc2N=Cc2ccc([N+](=O)[O-])cc2[N+](=O)[O-])cc1
  -9.6, 4079
- CC1OC(OC2C=C3CCC4C(CCC5(C)C(c6ccc(=O)oc6)CCC45O)C3(C)CC2)C(O)C(OC2OC(CO)C(O)C(O)C2O)C1O (centres undefined)
  93.2*, 3564
- COC(=O)[C@@]12CCCCN1[C@H](c1ccc(-c3ccc(F)cc3)c(OC)c1)[C@H]1C(=O)N(C)C(=O)[C@H]12
  -4.1, 2897
- C[C@H]1CCC/C=C/[C@@H]2C[C@H](O)C[C@H]2[C@H](O)[C@H](S(=O)c2ccc(O)cc2)CC(=O)O1 (some centres undefined)
  86.0*, 3290
- O=C1CCC[C@@H]2C[C@@]3(C[C@@H]4CCN1[C@H]24)Nc1cc([N+](=O)[O-])ccc1NC3=NC1CCCCC1
  -13.6, 3917
- CC(C)(C)C(=O)OCOC(=O)[C@@H]1N2C(=O)[C@@H](N=CN3CCCCCC3)[C@H]2SC1(C)C
  0.1, 5987
- C[C@@]12C(=O)Nc3ccc(Br)cc3C(=O)N1[C@H]1c3cc(Cl)ccc3OC[C@@H]1[C@@H]2c1ccccc1
  -11.8, 3654
- Cc1cccc(NC(=O)c2cccc(NC(=O)c3ccco3)c2)c1
  -17.3, 4015
- CCN(CC)CCc1nc(-c2ccccc2)no1
  -19.4, 6190
- COC(=O)[C@@]1(Cc2ccc(F)cc2)[C@@H]2[C@@H](CC(=O)[C@H]2CC(=O)C(=O)N(C)C)CN1C(=O)c1ccccc1
  1.0, 3923
- C=CCC[C@@H](Cc1ccc(F)cc1)C(=O)OC[C@@H](Cc1c[nH]c2ccccc12)NC(=O)[C@H](CC=C)CC(=O)N(CCO)Cc1ccccc1
  -13.7, 3530
- c1ccc2nc(NN=C3CCCCC3)ccc2c1
  -25.7, 3139
- CCOC(=O)[C@H]1[C@H]2COc3ccc(Cl)cc3[C@@H]2N2C(=O)c3ccccc3NC(=O)[C@@]12C
  -2.4, 3709
- O=C(N/N=C/c1ccc([N+](=O)[O-])cc1)c1ccc(NS(=O)(=O)c2cccs2)cc1
  -18.3, 3383
- CN(C(=O)c1cccc(NC(=O)Cc2ccc(NC(=O)C3CCCN(C(=O)C4CCCC4)C3)cc2)c1)C1CCC1 (centres undefined)
  -14.2, 3968
- NC(CSC(c1ccccc1)(c1ccccc1)c1ccccc1)C(=O)O (centres undefined)
  -37.7, 3897
- O=C1NC[C@H](Cc2ccccc2)N(CC2CCN(CCCC3CCCC3)CC2)C1=O
  -10.0, 3268
- O=C(COc1coc(CN2CCN(c3ccc(F)cc3)CC2)cc1=O)NC1CCCCC1
  -2.0, ?
- COC(=O)[C@@H]1C[C@@H](C(=O)O)[C@H](C)C1(C)C
  -20.5, 4051
- CC(C)[C@H](N)c1cn([C@@H](CC(N)=O)C(=O)N2CCNCC2)nn1
  -21.0, 4383
- CO[C@H]1/C=C/O[C@@]2(C)Oc3c(C)c(O)c4c(O)c(c5c(c4c3C2=O)NC2(CCN(CC(C)C)CC2)N=5)=NC(=O)/C(C)=C\C=C\[C@H](C)[C@H](O)[C@@H](C)[C@@H](O)[C@@H](C)[C@H](OC(C)=O)[C@@H]1C
  11.5, 4164
- Cc1noc(C)c1NC(=O)Nc1ccc2c(c1)CC(=O)N([C@H](C)CO)C[C@@H](C)[C@H](CN(C)CC1CCCCC1)O2
  -12.7, 3113
- COc1ccc(OCC(=O)N/N=C/c2cccn2-c2cccc(C(=O)O)c2)cc1
  -11.9, 6077
- Cc1cc(NC(=O)c2ccc(C(C)(C)C)cc2)no1
  -48.3, 3304
- Cc1cc([N+](=O)[O-])ccc1P(=O)(O)c1ccc([N+](=O)[O-])cc1C
  -7.9, 3319
- N=C1N(c2ccccc2)C(=S)C(=Nc2ccccc2)N1c1ccccc1
  -26.0, 3467
- C=CC(=O)Nc1cccc(Oc2ccnc(Nc3ccc(N4CCN(C)CC4)cc3)n2)c1
  37.1, 2791
- COc1ccc(C(=O)OC2C[C@H]3CC[C@H](C2)N3C)cc1OC (some centres undefined)
  -1.1, 5802
- C[C@@H]1CCC(=O)N(CC[C@H](Sc2ccc(Br)cc2)c2ccccc2)CC1
  -17.8, 3522
- CC(C)(C)[C@@H]1COC(=O)[C@H](Cc2ccc(F)cc2)C/C=C\C[C@H](CC(=O)N(CCO)Cc2ccccc2)C(=O)N1
  -18.8, 4100
- O=C(C[C@@H]1C/C=C\C[C@H](Cc2ccc(F)cc2)C(=O)OC[C@@H](c2ccccc2)NC1=O)NCCO
  -7.2, 2943
- O=C(Nc1ccn(CCCNCCN2CCOCC2)c(=O)n1)OCc1ccccc1
  -1.6, 2845
- CC1(C)CC=CC(COC(=O)c2ccccc2C(=O)O)C1 (centres undefined)
  -32.2, 3374
- C=CCN1CCC(=O)C(C(=O)OCC)=C1C(=O)OCC
  -11.6, 3773
- Cc1ccc(OS(=O)(=O)c2ccccc2)c(/C=N/N=C2\NC(=O)C(C)S2)c1 (centres undefined)
  -6.3, 4790
- COc1ccc2nc(-c3ccccc3)nc(SC)c2c1
  -13.9, 2934

Reformatted tab-delimited: entries from further up
structure	PrP UTR inh	Autofluor counter
O=C1NC[C@H](Cc2ccccc2)N(CC2CCN(CCCC3CCCC3)CC2)C1=O	-10.0	3268
O=C(COc1coc(CN2CCN(c3ccc(F)cc3)CC2)cc1=O)NC1CCCCC1	-2.0	?
COC(=O)[C@@H]1C[C@@H](C(=O)O)[C@H](C)C1(C)C	-20.5	4051
CC(C)[C@H](N)c1cn([C@@H](CC(N)=O)C(=O)N2CCNCC2)nn1	-21.0	4383
CO[C@H]1/C=C/O[C@@]2(C)Oc3c(C)c(O)c4c(O)c(c5c(c4c3C2=O)NC2(CCN(CC(C)C)CC2)N=5)=NC(=O)/C(C)=C\C=C\[C@H](C)[C@H](O)[C@@H](C)[C@@H](O)[C@@H](C)[C@H](OC(C)=O)[C@@H]1C	11.5	4164
Cc1noc(C)c1NC(=O)Nc1ccc2c(c1)CC(=O)N([C@H](C)CO)C[C@@H](C)[C@H](CN(C)CC1CCCCC1)O2	-12.7	3113

Additional compounds follow.
Below each SMILES: PrP UTR inh, Autofluor counter
- COC(=O)C1=C(c2cccc(C#N)c2)C[C@@H]2CC[C@H]1N2C(=O)NC1CC1
  -1.8, 3835
- CCN1C[C@@H]2[C@@H]3C(=O)N(C)C(=O)[C@@H]3[C@](Cc3ccccc3)(C1=O)N2C(=O)c1ccccc1
  -27.1, 3696
- CC(=O)Nc1c(Br)cc2c(c1Br)Cc1cc(Br)ccc1-2
  -1.0, 3912
- CC(C)c1ccc(-n2nnnc2SCC(=O)NC2CC2)cc1
  -7.1, 4055
- O=C1C=C(c2ccc3c(c2)OCO3)C[C@@H](c2ccc3c(c2)OCO3)C1
  -12.5, 2931
- Nc1cc2c(cc1Br)[nH]c(=O)c1ccccc12
  -22.0, 3658
- C=CCC[C@@H](Cc1ccc(F)cc1)C(=O)OC[C@@H](NC(=O)[C@H](CC=C)CC(=O)N(CCO)Cc1ccccc1)c1ccccc1
  -17.3, 4177
- COc1ccc(CN2CC(=O)N3[C@H]4c5ccc(OC)cc5OC[C@@H]4[C@H](c4ccccc4)[C@]3(C)C2=O)cc1
  -21.4, 3987
- CCN(CC)S(=O)(=O)c1ccc(C(=O)Nc2cc(S(=O)(=O)N3CCOCC3)ccc2N2CCN(C)CC2)cc1
  -8.2, 3121
- CC(C)(C)OC(=O)C[C@@H]1C/C=C\C[C@H](CC(=O)N(CCO)Cc2ccccc2)C(=O)N[C@@H](Cc2c[nH]c3ccccc23)COC1=O
  -28.3, 3627
- COC(=O)C1=C(c2ccccc2OCc2ccccc2)C[C@@H]2CC[C@H]1N2C(=O)NCCOc1ccc(OC)cc1
  -2.8, 4411
- CCC1c2ccccc2C(=O)C1C(N)=O (centres undefined)
  -22.1, 3570
- COc1cccc(C=C2SC(=S)NC2=O)c1
  -18.5, 3622
- Cc1noc(C)c1NC(=O)N(C)C[C@H]1Oc2ccc(NC(=O)CCN3CCOCC3)cc2C(=O)N([C@H](C)CO)C[C@@H]1C
  -26.8, 4033
- CC(C)(C)OC(=O)N1CCC(C(=O)Nc2ccc(C(=O)NCc3ccccc3)cc2)CC1
  -18.3, 3783
- CCC/C(C#Cc1ccsc1)=C1/c2ccccc2C(=O)N1c1ccccc1
  -19.4, 3138
- COc1ccc(C2=CC(=O)C[C@H](c3ccc(Cl)cc3)C2)cn1
  -3.6, 3895
- COc1ccc(S(=O)(=O)N(C)C[C@H]2Oc3ccc(NC(=O)NC4CCCCC4)cc3C(=O)N([C@H](C)CO)C[C@@H]2C)cc1
  -15.0, 2959
- CC1CCN(S(=O)(=O)c2ccc(NC(=O)C3CCCCC3C(=O)O)cc2)CC1 (centres undefined)
  -14.6, 3903
- CC(C)NC(=O)N(C)C[C@H]1Oc2ccc(NS(=O)(=O)c3ccccc3)cc2C(=O)N([C@H](C)CO)C[C@H]1C
  -13.1, 3836
- O=C(Nc1ccc(C(=O)N2CCCCC2)cc1)C1CCC1
  -25.0, 3444
- Cc1nc2nc(C)n(CCN3CCOCC3)c(=O)c2c(-c2cccc([N+](=O)[O-])c2)c1C(=O)CCCCCCCCCCN1CCC(c2ccccc2)(c2ccccc2)CC1
  -11.7, 4687
- Clc1ccccc1C=NNc1ccccn1
  -70.5, 4005
- O=C(O)c1ccccc1NS(=O)(=O)c1ccc(N/N=C/c2ccc(O)c(O)c2)c([N+](=O)[O-])c1
  -3.9, 3657
- O=C1OCCN1C(=O)[C@H]1[C@H](c2ccc(F)cc2)C(c2ccccc2)=NN1c1ccc(Br)cc1
  -30.3, 3896
- C=CCN1C(=O)C(CC(=O)O)S/C1=N/N=C/c1ccc(N(CC)CC)cc1 (centres undefined)
  4.2, 3902
- CC(=O)C1=C(C)N(CC2CC2)C(=O)N[C@H]1c1cccs1
  -11.4, 3924
- COc1ccc(/C=N/NC(=O)c2ccccc2OCc2ccccc2)c(OC)c1
  1.1, 4493
- CC(C)CN1CCC(CN2CCNC(=O)C2=O)CC1
  -8.9, 4074
- Cc1noc(/C=C/N(C)C)c1S(=O)(=O)N1CCCC(C(=O)Nc2ccc3c(c2)OCO3)C1 (centres undefined)
  7.1, 6556
- O=S1(=O)c2ccc(Br)cc2N2CCC[C@@H]2CN1C1CC1
  -13.7, 3561
- COC(=O)C1=C(c2ccc(-c3ccccc3)c(F)c2)C[C@@H]2CC[C@H]1N2C(=O)NCCOc1ccccc1Cl
  -10.7, 4191
- CNC(=O)[C@H]1O[C@@H](n2cnc3c(NCc4cccc(I)c4)nc(Cl)nc32)[C@H](O)[C@@H]1O
  -39.7, 6525
- CC12CCC3c4ccc(OC(=O)N(CCCl)CCCl)cc4CCC3C1CCC2O (centres undefined)
  -62.2, 4146
- CC(C)=CCC[C@](C)(O[C@@H]1O[C@H](CO[C@@H]2O[C@H](CO)[C@@H](O)[C@H](O)[C@H]2O)[C@@H](O)[C@H](O)[C@H]1O)C1CC[C@]2(C)C1C(=O)CC1[C@@]3(C)CC[C@H](O[C@H]4O[C@@H](CO)[C@H](O)[C@@H](O)[C@@H]4O)C(C)(C)C3CC[C@]12C (some centres undefined)
  -14.5, 3616
- O=C1[C@H](Cc2ccccc2)NCC=CC[C@@H](c2ccc(Cl)cc2)N1Cc1ccccc1
  -17.4, 3268
- CC(=O)O[C@@H](C[C@@H](C)C1=C2C[C@H](O)C3[C@@]4(C)CCC(=O)C(C)(C)C4CC[C@]3(C)[C@@]2(C)CC1)[C@H]1OC1(C)C (some centres undefined)
  -12.5, 3528
- NC(=S)N=Nc1ccc(O)cc1
  -34.9, 3600
- CC(=O)NC1CCC(=O)C=C1c1ccccc1 (centres undefined)
  -24.6, 2805
- Cc1cc(C(=O)NCCN2CCOCC2)c2ccccc2n1
  -3.4, 2831
- O=C1C(Br)=C(c2ccccc2)C(c2ccccc2)=C1c1ccccc1
  -19.7, 3986
- C=CC[C@H](CC(=O)NCCO)C(=O)N[C@H](COC(=O)[C@@H](CC=C)CC(=O)OC(C)(C)C)Cc1c[nH]c2ccccc12
  -8.2, 2755
- O=C1C=CC2C3C(=O)N(c4ccccc4)C(=O)C3C1N2Cc1ccccc1 (centres undefined)
  -14.6, 3216
- O=C(NNC(=S)NC(=O)c1ccc(F)cc1)c1ccncc1
  -15.4, 3559
- O=C(NC(Cc1ccccc1)C(=O)N1CCN(S(=O)(=O)c2ccccc2F)CC1)c1ccccc1 (centres undefined)
  -12.8, 2950
- Cn1c2ccccc2c(=O)c2ccc(NCc3ccc4c(c3)OCO4)cc21
  -37.8, 4398
- C=CC[C@@H](CC(=O)N[C@@H](CO)Cc1ccccc1)C(=O)NC[C@@H](OC(=O)[C@@H](CC=C)Cc1ccc(F)cc1)c1ccccc1
  -13.8, 3775
- CC(=O)C[C@@H](O)CC(=O)[C@@H]1OC(=O)CCCCCCCCc2ccccc21
  -14.8, 4444
- Cc1ccc(NC(=O)c2ncn(CCCN3CCN(c4ncccn4)CC3)n2)cc1C
  -33.6, 3836
- CC1=NNC(=O)C1Br (centres undefined)
  -19.6, 3293
- COc1ccc([C@H](OC)[C@@]2(Cc3ccc(O)cc3)N=C(N)N(C)C2=O)cc1
  -25.5, 3721
- O=C1C(=NO)CCc2ccccc21
  -35.1, 4388
- CC(C)C(NC(=O)c1c(F)cccc1F)C(=O)N1CCN(S(=O)(=O)c2ccc(F)cc2)CC1 (centres undefined)
  -17.2, 4019
- CC12CC3OC3CC1CCC1C2CCC2(C)C1CCC21OCCO1 (centres undefined)
  -25.9, 2930
- COc1cc2c(cc1OC)C(=O)N1[C@H]3c4ccccc4OC[C@@H]3[C@H](c3ccccc3)[C@]1(C)C(=O)N2
  -117.6, 3838

Compound activity deposited in PubChem by several laboratories.
